HPGD block: blocks human HPGD enzyme activity; P15428; hit rate 4.3% among 150,000; purified HPGD, NADH fluorescence kinetic, PGE2 substrate; Potency, µM, for the others: top-dose activity change, negative = inhibition, usual class: inhibitors; active = well fitted inhibition curve with a large enough effect (not every such curve was filed as active); inconclusive = small, poorly fitted or top-dose-only effect, or another doubt; inactive = no such curve, though single readings can be large or run the other way;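 note: top concentration of the series not given in the record; plate controls included wells without enzyme; inactives centre near -10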
Target sequence (P15428 whole entry, looked up): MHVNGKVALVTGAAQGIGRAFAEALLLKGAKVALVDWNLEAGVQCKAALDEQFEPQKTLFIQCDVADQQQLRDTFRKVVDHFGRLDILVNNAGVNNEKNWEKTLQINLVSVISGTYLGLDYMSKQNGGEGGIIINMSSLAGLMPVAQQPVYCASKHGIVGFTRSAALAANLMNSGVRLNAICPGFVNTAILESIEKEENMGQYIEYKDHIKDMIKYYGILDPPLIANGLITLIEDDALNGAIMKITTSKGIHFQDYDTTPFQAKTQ
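NADH formation kinetics: reaction with 30 uM PGE2 and 1 mM NAD+ (final), 20 nM enzyme, Tris-HCl pH 8 with Tween 20, after 15 min compound preincubation at room temperature. Fluorescence change, last versus first of five reads.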
Numbers without * were called inactive; ? = inconclusive; & = joins results of further samples. % is set by controls: 0 for no effect and ±100 for the full control effect; potency is the fitted concentration of half-maximal effect. A portion of the library; the hit share may differ from the screen's.

SMILES	HPGD block
c1ccc(Cn2nnnc2C(c2ccncc2)N2CCOCC2)cc1 (stereo not drawn)	-5.5%
Cc1nnc(Oc2ccccc2)c2ccccc12	-4.5%
CC(=O)c1ccn(S(=O)(=O)c2ccccc2)c1	-1.0%
O=C(Nc1nnc(-c2ccc3c(c2)CCCC3)o1)C1CCCCC1	-9.8%
CC1CCN(c2ccc(NC(=S)NC(=O)c3ccc(-c4cccc([N+](=O)[O-])c4)o3)cc2)CC1	-16.4%
O=c1c2c3c(sc2nc2n1CCCCC2)CCCCC3	?
CC1(C)Cc2ccccc2-c2nnc(-c3ccco3)n21	?
CCOC(=O)C(CC)Sc1nnc2c3cc(C)ccc3n(C)c2n1 (stereo not drawn)	-23.9%
COc1ccc(N2CN=C3SCC(=O)N3C2)cc1	-2.3%
O=C(CN1C(=O)CSc2ccccc21)N1CCc2ccccc21	-5.0%
Cc1cc(NC(=O)CCCSc2nc(-c3ccco3)cc(C(F)(F)F)n2)no1	-17.1%
Cn1cccc1Cc1nnc(SCC(=O)Nc2ccc3c(c2)OCCO3)n1-c1ccc(F)cc1	-0.2%
CC(C(=O)NC1CCCC1)N(C(=O)c1snc(C(N)=O)c1N)c1ccc2c(c1)OCCO2 (stereo not drawn)	-19.6%
COC(=O)CCCC1=CC2=CC(=O)C(C)(OC(=O)c3cccs3)C(=O)C2=CN1c1ccccc1 (stereo not drawn)	-1.0%
Cn1ncc(C#N)c1NC(=O)C1CC(c2ccc(Cl)cc2)=NO1 (stereo not drawn)	-6.2%
Cc1ccc(S(=O)(=O)Nc2nc3ccc(S(=O)(=O)N4CCCC4)cc3s2)cc1	12.6µM*
Cc1c(Cl)cccc1NC(=S)NCCC(C)C	-26.4%
Cc1ccc(C(=O)Nc2ccc(N3CCN(S(C)(=O)=O)CC3)cc2)cc1	-12.7%
COc1ccc(/C=N\NS(=O)(=O)c2ccc(Br)cc2)cc1COc1ccccc1[N+](=O)[O-]	-3.6%
CCCn1c(=O)c2[nH]c(-c3ccc(OCC(=O)Nc4ccc(C#N)cc4)cc3)nc2n(CCC)c1=O	-15.6%
CCOC(=O)c1c(-c2ccccc2)oc2ccc(O)c(CN3CCOCC3)c12	-8.0%
N#C/C(=N\Nc1c(Cl)cccc1Cl)C(=O)NN	-14.3%
Nc1nc(SCc2nc3scc(-c4ccccc4)c3c(=O)[nH]2)n[nH]1	-13.6%
O=C(CSc1nnc(CNc2ccc(F)cc2)o1)N1CCCc2ccccc21	-7.4%
Cc1ccc(CNc2nc(N)c([N+](=O)[O-])c(Nc3cccc(F)c3)n2)cc1	-6.5%
S=C1NC(c2cccs2)=CC(c2ccc(Br)cc2)N1 (stereo not drawn)	31.6µM*
CCCc1c(C)nc2ccccc2c1SCCC#N	-27.0%
O=[n+]1c2c(n([O-])c3c1CCC3)CCCC2	-7.1%
Cc1cc(C(=O)NC(C)c2ccncc2)cs1 (stereo not drawn)	-5.5%
CCc1nnc(NC(=O)CC(=O)Nc2ccccc2C(=O)O)s1	-12.1%
CCCC(CCC)C(=O)O	-9.8%&-13.6%&-12.0%
COc1ccc(C2CC(c3cccc(OC)c3OC)n3nnnc3N2)cc1 (stereo not drawn)	-12.4%
Cc1ccc(N/C=C/C(=O)c2sc(-c3ccccc3)nc2C)cc1	-1.7%
NC(=O)C1CCN(C(=O)CSc2nc3ccccc3o2)CC1	-6.0%
CN(C)c1ccc(C(=C2C=CC(=[N+](C)C)C=C2)c2c(O)c(S(=O)(=O)O)cc3cc(S(=O)(=O)O)ccc23)cc1	-6.6%
O=C(CN1C2=NCCN2c2ccccc21)c1ccc(Br)cc1	-0.7%
CC(=O)c1cc2c(cc1NC(=O)CCNC(=O)c1ccccc1Cl)OCO2	-29.2%
COC(=O)C1(S(=O)(=O)c2ccc(C)cc2)CCOCC1	-14.0%
CC1CC(C)CN(C(=O)CSCC(=O)Nc2nc(-c3cccs3)cs2)C1 (stereo not drawn)	?
O=C1c2ccccc2C(=O)N1CCC1=CCCCC1	-9.2%

Ordered by the number under HPGD block (largest number first): 5 from the list above
SMILES	HPGD block
O=C(CN1C2=NCCN2c2ccccc21)c1ccc(Br)cc1	-0.7%
NC(=O)C1CCN(C(=O)CSc2nc3ccccc3o2)CC1	-6.0%
O=C(CSc1nnc(CNc2ccc(F)cc2)o1)N1CCCc2ccccc21	-7.4%
O=C1c2ccccc2C(=O)N1CCC1=CCCCC1	-9.2%
Nc1nc(SCc2nc3scc(-c4ccccc4)c3c(=O)[nH]2)n[nH]1	-13.6%

Other records follow:
SMILES	HPGD block
CC(=O)c1ccc(OC(C)C)c(CC(C(N)=O)C(N)=O)c1	-8.6%
CN(C)C(=O)N1CCC(C(=O)NCc2ccccc2Cl)CC1	-5.0%
CC1CCCCN1S(=O)(=O)c1ccc(N(C(=O)c2cnccn2)C(C(=O)NC2CCCC2)c2cccs2)cc1 (stereo not drawn)	-6.5%
CCn1c(SCC(=O)N/N=C/C=C\c2ccco2)nc2ccccc21	?
O=C(COC(=O)C1CC(=O)N(Cc2ccccc2)C1)c1ccc(Br)cc1 (stereo not drawn)	-10.1%
CN(C)S(=O)(=O)NCc1ccc2c(c1)OCO2	-1.3%
O=[N+]([O-])c1ccc(Sc2n[nH]c(-c3ccc(Cl)cc3Cl)n2)nc1	-14.6%
Cc1csc(SCC(=O)NC(=O)NCc2ccccc2)n1	-6.3%
CCC(=O)N1CCc2cc(S(=O)(=O)NCCC(=O)N3CCc4ccccc4C3)ccc21	-0.7%
CCOC(=O)C1=C(c2ccccc2)NC(SCC)=C(C#N)C1c1cccnc1 (stereo not drawn)	-10.3%
CC(C)c1ccc(C2NC(=S)NC3=C2C(=O)CCC3)cc1 (stereo not drawn)	-2.2%
COc1ccc(/C=N/NC(=O)C(O)(c2ccccc2)c2ccccc2)cc1OC	-18.5%
C=CCc1c(C)nc(SCCC)[nH]c1=O	-20.9%
Cc1nc(SCC(=O)NCc2ccccc2)c2c(=O)n(C)c(=O)n(C)c2n1	-7.8%
CN(C)CCNC(=O)/C(=C/c1cccc([N+](=O)[O-])c1)NC(=O)c1ccccc1	-3.2%
O=C(N=C1SCC(=O)N1c1ccccc1)c1ccco1	-8.3%
Cc1ccc2[nH]c(SCC(=O)N3CCOCC3)nc2c1C	3.0%
COc1ccccc1NC(=O)C1=C(C)Nc2nc3ccccc3n2C1c1cccs1 (stereo not drawn)	-19.1%
Cc1ccc(NC(=O)COc2ccc(C3SCCS3)cc2)cc1	-5.4%
CCCn1c(SCC(=O)Nc2nnc(CC)s2)nc2c1c(=O)n(C)c(=O)n2C	-17.3%
CC(=C/C(=O)O)/C=C/c1ccc(Cl)o1	-11.0%
Cc1cc(C(=O)Nc2nnc(C(F)(F)F)s2)no1	-2.0%
COc1cc(NC(=O)c2ccco2)c(OC)cc1NC(=O)CCC(=O)Nc1cccc(C)c1C	-1.8%
COc1ccc(N(C)S(=O)(=O)c2cccc(C(=O)NC3=NCCS3)c2)cc1	-18.5%
C=CCN1CCN(c2ccncc2S(=O)(=O)N2CCOCC2)CC1	-6.1%
CC(=O)Nc1sc(N/N=C\c2ccccc2Cl)nc1-c1cccs1	?
Cc1ccc(NC(=O)c2cc(-c3ccc(C)o3)nc3ccccc23)cc1	-29.4%
CCN(CC)C(=O)CN1CCN(c2ncccn2)CC1	-6.2%
CCOC(=O)C1=NN(C(=O)c2ccco2)C2(CC2)C1	-3.2%
O=C(OC1Cn2c(=O)ccc(=O)n2C1)c1ccccc1	-13.3%
Cc1c(C(=O)Nc2ccc(N3CCOCC3)cc2)oc2ccccc12	-10.7%
CCNC(=S)N/N=C1\C(=O)c2cccc3cccc1c23	-14.8%
Nc1ccc2cc3ccccc3cc2c1	2.1%
CCCCC1CC1C(=O)Nc1ccc(OC)c(OC)c1 (stereo not drawn)	-0.3%
C=CCN(c1cccc(C(F)(F)F)c1)S(=O)(=O)c1cccc(C(=O)OCC(=O)Nc2ccccc2)c1	-27.9%
O=C1CC(c2ccccc2)CN1C(=O)c1ccccc1 (stereo not drawn)	-16.9%
Cc1cc(OC(=O)c2cc(Cl)nc3ccccc23)ccc1Cl	-7.8%
CC(C)C(=O)N(Cc1ccccc1)c1ccccn1	-7.5%
COc1ccc(-c2nc3scc(-c4ccccc4)n3n2)cc1	-8.9%
O=[N+]([O-])c1cccc(CSc2nc3ccccc3[nH]2)c1	-17.8%
O=C(COc1ccccc1Cl)NC(=O)NC1CCCC1	-18.3%
O=C(Cn1c(=O)n(CC2CCCO2)c(=O)c2ccccc21)N1CCN(c2ccccc2)CC1 (stereo not drawn)	-12.6%
CCOC(=O)Cn1c(C)cc(=O)c2ccccc21	-4.8%
Cc1cc(C)cc(C(=O)O/N=C(\N)c2ccc(Br)cc2)c1	-8.7%
S=C1SCN(Cc2ccccn2)CN1Cc1ccco1	-1.8%
NC(=O)CC12CC3CC(C1)CC(CC(N)=O)(C3)C2	-0.6%
C#CCOC(=O)[C@H](N)CC(N)=O	-5.6%
COc1ccc(-n2nc(C(=O)O)nc2-c2ccccc2)cc1	-8.7%
CCOC(=O)C1=C(O)/C(=C\c2cccc(OC)c2)N=C1C	-6.2%
CC(C)CCNC(=O)NC(=O)CSc1nnc(-c2ccccc2F)n1N	-16.1%
COc1ccc(OCCSc2nnnn2C2CCCCC2)cc1	-15.3%
CCOC(=O)Cc1csc(NC(=O)CSc2nnc(-c3ccc(F)cc3)o2)n1	-9.5%
O=C(O)C1CC=CCC1C(=O)c1ccccc1 (stereo not drawn)	-12.0%
FC(F)Oc1cccc2cccnc12	-20.5%
O=C(CSc1nnc(CCc2nc3ccccc3[nH]2)n1-c1ccccc1)NCc1ccco1	-4.7%
CC(=O)Cc1nsc(NC(=O)c2ccc(-c3ccc(Cl)cc3Cl)o2)n1	-25.1%
COc1ccc(C(C)NC(=O)c2ccccc2)cc1 (stereo not drawn)	-20.2%
COC(=O)c1ccc(Cn2cnc3c(cnn3-c3ccc(C)c(C)c3)c2=O)o1	-11.4%
CC1=C(Sc2nc3ccccc3[nH]2)C(=O)NC(C)(C)C1	-4.2%
Cc1ccc(NC(=O)CCC(=O)OCC(=O)c2ccc(-c3ccccc3)cc2)cc1	-5.9%

Taken from the listing, five compounds:
SMILES	HPGD block
CC(=O)Cc1nsc(NC(=O)c2ccc(-c3ccc(Cl)cc3Cl)o2)n1	-25.1%
COc1ccc(C(C)NC(=O)c2ccccc2)cc1 (stereo not drawn)	-20.2%
COC(=O)c1ccc(Cn2cnc3c(cnn3-c3ccc(C)c(C)c3)c2=O)o1	-11.4%
CC1=C(Sc2nc3ccccc3[nH]2)C(=O)NC(C)(C)C1	-4.2%
Cc1ccc(NC(=O)CCC(=O)OCC(=O)c2ccc(-c3ccccc3)cc2)cc1	-5.9%

Later entries
SMILES	HPGD block
Cc1cccc(N2CCN(C(=O)C(NS(=O)(=O)c3cccs3)c3ccccc3)CC2)c1C (stereo not drawn)	-21.5%
COC(=O)N1[C@H](C)C=C[C@]1(Cc1ccccc1)C(=O)NCCCNc1ncc(C(F)(F)F)cc1Cl	-19.2%
COc1cc(Br)cc2cc(C(=O)N3CCCCC3C)c(=O)oc12 (stereo not drawn)	12.6µM*
Nc1cccc(-c2nc3ccccc3[nH]2)c1	?
CCOC(=O)C1=C(CN2CCC(C)CC2)NC(=O)NC1c1ccc(Cl)cc1 (stereo not drawn)	-3.8%
COc1ccccc1NC(=S)NCCc1c[nH]c2ccccc12	-7.4%
O=C(Nc1ccc(Cc2ccncc2)cc1)c1cccc([N+](=O)[O-])c1	1.41µM*
CCCn1c2ccccc2c2nnc(SCC(=O)Nc3nnc(CC(=O)OCC)s3)nc21	-8.1%
O=C(Cn1nc(-c2cccc(Cl)c2)ccc1=O)Nc1cccnc1	-12.6%
COC(=O)c1ccc(-c2n[nH]c(=O)c3ccccc23)cc1	-14.7%
O=C(Nc1nnc(Cc2ccc(Cl)cc2)s1)c1cccs1	-7.3%
Cc1cc(SCC(=O)N(C)CC(=O)Nc2ccc(F)cc2)nc2ccccc12	-6.9%
O=C(CN(c1ccc2c(c1)OCCO2)S(=O)(=O)c1ccccc1)NCC1CCCO1 (stereo not drawn)	-8.0%
CC(=O)Nc1ccccc1C(=O)C(=O)Nc1cccc(C(=O)NCc2ccc(C)cc2)c1	-9.5%
CC(=O)c1cnc2c(-c3ccccc3)cnn2c1C	-9.0%
Brc1cc(Br)c2nc(-c3ccc(N4CCOCC4)cc3)ccc2c1	-18.6%
O=c1c2ccccc2c(C=NCCc2ccccc2)c(O)n1Cc1ccccc1	-10.8%
O=C(CCn1c(=O)[nH]c2ccsc2c1=O)N1CCc2ccccc2C1	?
N=C(N)SCc1cccc2ccccc12	?
CCN1CCN(C(c2ccccc2OC)c2nnnn2C2CCCCC2)CC1 (stereo not drawn)	-8.9%
O=C(NCC(c1ccco1)N1CCN(c2ccccc2)CC1)OCc1ccccc1 (stereo not drawn)	-18.6%
Cc1ccc(-c2cc(C(F)(F)F)c(C#N)c(=O)[nH]2)cc1	?
COc1ccc(N=C2C(=O)Nc3c(C)cccc32)cc1	-0.1%
c1ccc(-n2cnnc2SCc2nc3ccccc3s2)cc1	-1.5%
Cc1ccc(Nc2nc(N)nc(CSc3nc(C)cc(C)n3)n2)cc1	-5.1%
CC(C)(C)NC(=O)COC(=O)c1snc(C(=O)NC2CCCCC2)c1N	?
COc1ccc(Cl)cc1S(=O)(=O)Oc1ccc(NC(C)=O)cc1	2.5%
CC1Cc2nc(SCC(=O)Nc3ccc(F)cc3F)n(C)c(=O)c2S1 (stereo not drawn)	-8.5%
CCCCC(CC)C(=O)Nc1ccc(Nc2ccccc2)cc1 (stereo not drawn)	-10.5%
CCCCNC(=S)Nc1ccc(-c2nc3ccc(C)cc3s2)cc1	?
CC1CCc2sc(C(=O)OC(C)C(=O)Nc3ncc(Cl)cc3Cl)cc2C1 (stereo not drawn)	-9.7%
CCCNC(=O)COc1nc2ccccc2nc1N1CCOCC1	-7.3%
O=C(O)c1nn(-c2ccc(Cl)cc2)c2c1C(=O)c1ccccc1C2=O	-3.0%

Source: PubChem BioAssay
